HPGD block = inhibitors of human 15-hydroxyprostaglandin dehydrogenase (HPGD); P15428; purified HPGD, NADH fluorescence kinetic, PGE2 substrate; Potency, µM, without a hit: top-dose activity change, negative = inhibition, actives largely listed as inhibitors; hit rate 4.3% among 150,000; AID 894; active = well fitted inhibition curve with a large enough effect (not every such curve was filed as active); inconclusive = small, poorly fitted or top-dose-only effect, or another doubt; inactive = no such curve, though single readings can be large or run the other way;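 note: top concentration of the series not given in the record; plate controls included wells without enzyme; inactives centre near -10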
Target sequence (P15428 whole entry, looked up): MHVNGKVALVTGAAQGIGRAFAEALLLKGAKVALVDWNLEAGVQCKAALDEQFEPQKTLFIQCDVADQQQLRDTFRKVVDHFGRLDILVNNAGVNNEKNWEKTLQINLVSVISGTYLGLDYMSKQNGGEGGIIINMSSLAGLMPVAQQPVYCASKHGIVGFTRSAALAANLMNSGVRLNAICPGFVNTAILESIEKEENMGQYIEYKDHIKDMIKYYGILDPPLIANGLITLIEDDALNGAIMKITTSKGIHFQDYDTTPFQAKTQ
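20 nM HPGD preincubated 15 min at room temperature with compound in 50 mM Tris-HCl pH 8, 0.01% Tween 20. Started with 1 mM NAD+ and 30 uM prostaglandin E2; NADH fluorescence (360/450 nm) read 5 times over 30-s intervals, last minus first.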
Numbers without * were called inactive; ? = inconclusive; & = joins results of further samples. % is set by controls: 0 for no effect and ±100 for the full control effect; potency is the fitted concentration of half-maximal effect. Only part of the results is shown. The share of hits here may be higher or lower than overall.

| smiles | HPGD block |
| --- | --- |
| Cc1cc(C(=O)NCC(=O)OCC(=O)N(C2CCCCC2)C2CCCCC2)ccc1[N+](=O)[O-] | -8% |
| Cc1noc(C)c1C(=O)N1CCC2(CCCN(Cc3ccccc3)C2)CC1 | -15% |
| CCC(=O)Oc1ccc(C/C(=N\O)c2ccc(O)cc2O)o1 | -20% |
| N#CC1=C(N)NC(SCc2ccc(Br)cc2)=C(C#N)C12CCCCC2 | -12% |
| O=C1c2ccccc2C(Nc2ccc3c(c2)OCCO3)N1Cc1ccco1 (stereo unspecified) | -17% |
| Cn1cccc1/C=N/n1c(-c2ccc(Cl)cc2Cl)n[nH]c1=S | 13µM* |
| CC(Sc1nnnn1C)C(=O)Nc1ccc(N2CCOCC2)cc1 (stereo unspecified) | -13% |
| C=CCn1c(SCc2nc(N)nc(N3CCCCC3)n2)nnc1-c1ccco1 | 16µM* |
| CCc1ccc2c(c1)C(c1ccc([N+](=O)[O-])cc1)=NNC(c1ccc(C)cc1)=N2 | -4% |
| COc1cc(S(=O)(=O)N2CCN(c3ccccc3F)CC2)c(OC)cc1Cl | -2% |
| O=C(C1CCCN(S(=O)(=O)c2cnc[nH]2)C1)N1CC(=O)N(CCc2ccccc2)C(=O)C1 (stereo unspecified) | 2% |
| CCOC(=O)c1cc2c(nc1NC(=S)Nc1ccccc1)CC(C)(C)OC2 | -4% |
| Cc1n[nH]c(C)c1S(=O)(=O)N1CCN(C(=O)c2ccco2)CC1 | -8% |
| c1ccc2c(c1)CCOC2CNCCCN1CCCCC1 (stereo unspecified) | -8% |
| COc1ccc(-c2csc(NC(=O)CCCc3cccs3)n2)cc1 | -6% |
| Cn1nnc2cc(C(=O)NC3CCCCC3)ccc21 | -13% |
| CC1=NN(C(=O)c2ccc(Cn3ccc([N+](=O)[O-])n3)cc2)C(O)(C(F)(F)F)C1 (stereo unspecified) | -4% |
| Cc1ccccc1Cn1c2ccccc2c2cnn(CC(=O)N3CCN(c4ccccc4)CC3)c(=O)c21 | ? |
| CCCCNC(=O)CSc1cc(=O)n(C)c2ccccc12 | 14µM* |
| COc1ccc(C)cc1S(=O)(=O)N(CC(=O)O)c1ccc(C)cc1 | 6% |
| NCCCCCCNS(=O)(=O)c1cccc2c(Cl)cccc12 | -2%&-6%&-2% |
| COC(=O)C(Cc1ccc(O)cc1)NC(=O)C(C)Oc1ccccc1 (stereo unspecified) | -9% |
| CCOc1ccc(C(=O)COC(=O)CC)cc1 | -8% |
| CCOc1ccc(Oc2nc(C)cc(OC)n2)nn1 | -6% |
| O=C(NCc1ccco1)c1c2c(nc3ccccc13)CCC2 | -13% |
| CCOc1ccc2nc3c(cc2c1)CN(CCOC)C(=NCCOC)S3 | -3% |
| CC1(C)CC(=O)C(C=NCCN2CCN(C(=O)C34CC5CC(CC(C5)C3)C4)CC2)=C(O)C1 | -15% |
| O=C(CC1Oc2ccccc2NC1=O)NCCCN1CCN(Cc2ccccc2)CC1 (stereo unspecified) | -3% |
| CCC(C)C(=O)Nc1nc(C)c(-c2csc(Nc3ccc(Cl)cc3)n2)s1 (stereo unspecified) | ? |
| Cc1cccc(NC(=O)CCSc2ccccn2)c1 | 14µM* |
| Cc1onc(-c2c(Cl)cccc2Cl)c1C(=O)c1c[nH]c(C(=O)NC2CC2)c1 | -1% |
| O=C(Oc1ccccc1OC(=O)N1CCOCC1)N1CCOCC1 | 5% |
| O=C(CSc1ncccc1-c1nc2ccccc2[nH]1)N1CCc2ccccc21 | -22% |
| CC(C)CCNC(=S)NC1CCCC1 | -3% |
| COc1cc(C)nc(OCCNC(=O)COc2ccc(Cl)cc2Cl)n1 | -21% |
| CN(CCOC(=O)c1ccc2c(c1)OCCO2)Cc1ccccc1 | -5% |
| CC1(C)OC2OC(C(=O)N/N=C/c3ccccc3F)C3OC(C)(C)OC3C2O1 (stereo unspecified) | -5% |
| O=C(NCCc1ccccc1)C(=O)Nc1nccs1 | -8% |
| O=C(OCC(F)(F)F)c1cccc(COc2ccc3ccccc3c2)c1 | -2% |
| Cc1cn([C@H]2C=C[C@@H](CO)O2)c(=O)[nH]c1=O | -6%&-24%&-8%&-3%&0% |

Rewritten field by field: entries from further up.
> CCc1ccc2c(c1)C(c1ccc([N+](=O)[O-])cc1)=NNC(c1ccc(C)cc1)=N2
  HPGD block: -4%
> COc1cc(S(=O)(=O)N2CCN(c3ccccc3F)CC2)c(OC)cc1Cl
  HPGD block: -2%

(next part)
| smiles | HPGD block |
| --- | --- |
| C=CCN(c1ccc(C(=O)N2CCCC2)cc1)S(C)(=O)=O | 20µM* |
| O=C(Nc1ccc2c(c1)OCCO2)c1ccc(NC(=O)C2CCCO2)cc1 (stereo unspecified) | -27% |
| C/C(=N\NC(=O)COc1ccccc1F)c1cc2ccccc2o1 | -15% |
| Nc1nc(CSc2ncccn2)nc(Nc2ccccc2)n1 | -12% |
| CC(=O)c1ccc(OC(=O)CCN2c3ccccc3Sc3ccccc32)cc1 | -20% |
| O=C(/C=C/c1ccccc1)Nc1cccc(S(=O)(=O)Nc2ccccc2F)c1 | 2µM* |
| Cc1csc(SC(C)C(=O)Nc2ccc(Cl)cn2)n1 (stereo unspecified) | -2% |
| CCCNC(=O)CSc1nc(-c2cccs2)cc(C(F)(F)F)n1 | ? |
| COC(=O)CSc1nc(C)c2ccc(OC)cc2n1 | ? |
| CC(C)C(=O)Nc1cccc(C(=O)Nc2nccs2)c1 | -10% |
| NC(N)=N/N=C\c1ccc(C2CCNCC2)cc1 | -2% |
| Cc1ccc(-n2ncc3c(N4CCN(c5ccccc5)CC4)ncnc32)c(C)c1 | ? |
| O=C(CCN1C(=O)/C(=C/C=C/c2ccccc2)SC1=S)Nc1nccs1 | -16% |
| O=C(O)c1ccc2c(c1)C(=O)N(c1cc(C(=O)O)ccc1Br)C2=O | ? |
| Cc1ccc2c(CC(=O)NCc3cccs3)coc2c1 | ? |
| CN1CCN(Cc2cc(=O)oc3ccc(Cl)cc23)CC1 | -14% |
| NCCC(=O)N[C@H](Cc1cnc[nH]1)C(=O)O | -8% |
| CCOc1ccc(Nc2nc(Cl)nc(NCCO)n2)cc1 | -7% |
| COc1ccc(C(=O)Nc2cccnc2)cc1 | -7% |
| CCCOc1ccc(/C(O)=C2/C(=O)C(=O)N(CCCOC)C2c2cccnc2)cc1 (stereo unspecified) | -17% |
| CC(=O)c1cc(-c2ccccc2)[nH]c1N1CCOCC1 | -10% |
| CCN(CC)c1ncnc2c1cnn2C | -5% |
| O=S(=O)(c1cccs1)N1CN(Cc2ccccc2)c2nc3ccccc3nc21 | -23% |
| CC(C(=O)NCCCN1CCOCC1)n1cccc1C(=O)c1ccccc1 (stereo unspecified) | -8% |
| O=C(O)CC(Cc1ccccc1)c1ccc2c(c1)OCO2 (stereo unspecified) | -2% |
| Cc1cccc(-c2c3c(=O)n(C)c(=O)n(C)c3cn2C2CCCCC2)c1 | -29% |
| COc1cc2c(cc1O)C(Cc1ccc(O)cc1)N(C)CC2 (stereo unspecified) | -13% |
| NC(=O)c1c(NC(=O)C2CCCO2)sc2c1CCC2 (stereo unspecified) | -8% |
| CC1(C)CC(c2nc(-c3ccc(Br)cc3)cs2)CCS1 (stereo unspecified) | -4% |
| O=C(NCCCCNC(=O)c1ccco1)c1ccco1 | -6% |
| O=C(CCS(=O)(=O)c1cccc2nonc12)N1CCCc2ccccc21 | -15% |
| CCn1cc(C(=O)NCc2cccnc2)c2cc(OC)c(OC)cc2c1=O | -17% |
| C=CCC(NCc1ccco1)c1ccc(OC)cc1 (stereo unspecified) | -12% |
| CCCCNc1nnc(CCn2nc(C)c(Br)c2C)s1 | -21% |
| Cc1c(NC2=NC3(CCCCC3)Cc3ccccc32)c(=O)n(C)n1-c1ccccc1 | -16% |
| CCc1ccc(-c2nc(CSCC(=O)N3CCN(c4ncccn4)CC3)c(C)o2)cc1 | ? |
| Cc1csc(NC(=O)CCn2c(=O)sc3ccccc32)n1 | -7% |
| C=CCn1c(-c2cccn(Cc3ccc(Cl)cc3)c2=O)n[nH]c1=S | 1% |
| CCN(CC)CCNC(=O)Cn1nc(Cc2ccccc2)c2ccccc2c1=O | -1% |
| COc1cc(-c2cc(=O)c3c(O)c(OC)c(OC)c(OC)c3o2)cc(OC)c1OC | -12% |
| CN(Cc1ccccc1)C(=O)CCNS(=O)(=O)c1ccc2c(c1)oc(=O)n2C | -10% |
| Cc1ccccc1SCC(=O)N1CCN(c2ccc(C(F)(F)F)cn2)CC1 | -20% |
| Cc1cc(NS(=O)(=O)c2ccc(NC(=O)C(C)Oc3ccc(Cl)cc3)cc2)no1 (stereo unspecified) | 1% |
| CCOC(=O)C1CCN(C(=O)c2cn(-c3ccccc3)nc2-c2cccnc2)CC1 | -7% |
| Cc1cc(Cl)ccc1OCCCC(=O)NO | -5% |
| CCn1c(SCC(=O)N/N=C/c2c[nH]c3ccccc23)nnc1-c1ccc(Cl)cc1 | -6% |
| C[N+](C)(C)CCC(=O)c1cccc2ccccc12 | 14µM* |
| O=C(CCc1nc(-c2cccs2)no1)Nc1cnc2ccccc2c1 | -27% |
| COc1ccc2c(c1)[nH]c1c(=O)n(CC3CCCO3)cnc12 (stereo unspecified) | -22% |
| CCOC(=O)c1c(C2CC2)csc1NC(=O)CSCc1c(C)noc1C | -10% |
| COc1ccc([N+](=O)[O-])cc1NC(=O)C(C)N(C)Cc1ccc(Br)cc1 (stereo unspecified) | -9% |
| Cn1c(=O)[nH]c(=O)c2c1nc(NCCc1ccccc1)n2CC(O)COc1ccccc1 (stereo unspecified) | -3% |
| Oc1ccc(C(c2nnnn2C2CCCC2)N2CCc3ccccc3C2)cc1 (stereo unspecified) | -5% |
| Cc1cc(NC(=O)c2cc3n(n2)C(C(F)(F)F)CC(c2ccco2)N3)no1 (stereo unspecified) | -5% |
| O=C(O)[C@H](CCc1ccccc1)N1C(=O)c2ccccc2C1=O | -7% |
| CCOc1cccc(-c2cc(C(=O)N/N=C/c3ccc(OC)c(CN4CCOCC4)c3)c3ccccc3n2)c1 | ? |
| CCC1(C)Cc2c(c(=O)n(-c3ccccc3)c3ncnc(N)c23)CO1 (stereo unspecified) | ? |
| O=C(Nc1cccc([N+](=O)[O-])c1)c1ccc2c(c1)OCCO2 | -4% |
| Cc1cc(-c2ccco2)n(CC(=O)NCc2ccccc2)n1 | -3% |
| Cc1sc2nc(CN3CCOCC3)[nH]c(=O)c2c1-c1ccccc1 | 1% |

Grouped by structure: the compounds so far containing a COOH group.
| smiles | HPGD block |
| --- | --- |
| COc1ccc(C)cc1S(=O)(=O)N(CC(=O)O)c1ccc(C)cc1 | 6% |
| O=C(O)c1ccc2c(c1)C(=O)N(c1cc(C(=O)O)ccc1Br)C2=O | ? |
| NCCC(=O)N[C@H](Cc1cnc[nH]1)C(=O)O | -8% |
| O=C(O)CC(Cc1ccccc1)c1ccc2c(c1)OCO2 (stereo unspecified) | -2% |
| O=C(O)[C@H](CCc1ccccc1)N1C(=O)c2ccccc2C1=O | -7% |

Carrying on.
| smiles | HPGD block |
| --- | --- |
| CC(=O)N1CCC(Nc2ccc(C)cc2)CC1 | -12% |
| COc1ccc2c(c1)CCc1c(C(=O)N3CCCCCC3)noc1-2 | 10µM* |
| CCc1nnc(NC(=O)c2ccc(S(=O)(=O)N3CCc4ccccc4C3)cc2)s1 | -13% |
| O=C(Nc1ccc(Nc2ccccc2)cc1)c1ccc(Br)o1 | 28µM* |
| CCOc1cccc(C(=O)Nc2nnc(-c3cccs3)s2)c1 | ? |
| C/C(N)=C(/C#N)C(=O)CSc1nc2ccccc2c(=O)n1CCCOC(C)C | -2% |
| COc1cc2oc3ccccc3c2cc1N(CC(=O)N(C)C)S(=O)(=O)c1ccc(C)cc1 | 7% |
| CCOc1ccc(N(CC(=O)NC(C)CC)S(=O)(=O)c2c(C)noc2C)cc1 (stereo unspecified) | -1% |
| O=C(CSc1nc(N2CCCCC2)nc(N2CCCCC2)n1)Nc1nccs1 | 3% |
| Cc1c(CN(C)C(=O)/C=C/c2ccc([N+](=O)[O-])cc2)cnn1C | -9% |
| COc1cc(Cl)cc(C2NC(=O)NC(C)=C2C(=O)NCc2ccccc2)c1O (stereo unspecified) | -4% |
| Cc1c(C(=O)OCCOc2ccccc2)[nH]c2c1C(=O)CCC2 | -18% |
| COc1ccc(C2Nc3ccccc3C(=O)N2Cc2ccco2)cc1COc1ccc([N+](=O)[O-])cc1 (stereo unspecified) | -14% |
| O=C(c1cc(-c2ccccc2)nc2ccccc12)N1CCc2ccccc2C1 | ? |
| O=C1c2ccccc2C(=O)N1C1(C(=O)NC2(C(=O)O)CCCC2)CCCC1 | -5% |
| CC1=CC(=O)CC(C)(C)C1(O)/C=C/C(C)=C/C(=O)O (stereo unspecified) | -5% |
| CC(C)C[C@H](NC(=O)OC(C)(C)C)c1nnc(SCC(=O)Nc2ccc(Br)cc2)o1 | -16% |
| CCOc1ccc(CNC(=O)CCn2c(=O)oc3ccccc32)cc1OC | -2% |
| CC(CN1CCN(C)CC1)OC(=O)c1ccccc1 (stereo unspecified) | -3% |
| Cc1cc2cc(CNC(=O)Nc3ccccc3)ccc2n1C | -28% |
| Cc1ccccc1C(CC(=O)c1cccs1)C(C#N)C#N (stereo unspecified) | -12% |
| CC(C)Cn1c(N)c(C(=O)COC(=O)c2cc(-c3ccccc3)nc3ccccc23)c(=O)n(C)c1=O | ? |
| CCC(C)NCCOCCOc1ccccc1-c1ccccc1 (stereo unspecified) | -3% |
| Cc1nnc(-c2cnn(C)c2N)n1Cc1ccccc1F | -5% |
| COC/C=C/C1=CC2=CC(=O)C(C)(OC(=O)c3cnc4ccccc4n3)C(=O)C2=CN1c1ccccc1 (stereo unspecified) | -2% |
| CCN1C(=O)C(CC(=O)Nc2ccc(Br)cc2)N(CCCc2ccccc2)C1=S (stereo unspecified) | -5% |

Compound activity as filed in PubChem BioAssay.
